Screening results from PubChem BioAssay.
NS1 function inh – blocks influenza NS1 protein function; S. cerevisiae slowed by influenza A NS1, growth recovery by OD600; hit rate 0.4% among 270,000; AID 2326; Potency, µM (doses to about 46.1 µM), for the others: at the highest dose activity, positive = more growth; active means well fitted rising curve with a large enough effect; inconclusive means small, poorly fitted or top-dose-only effect; inactive means no such curve, though single readings can be large or run the other way; further: nearly all actives have a fitted effect of over 50% in size
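Compounds were scored for reversing the slow growth caused by influenza A NS1 in S. cerevisiae, measured by optical density at 600 nm. Assay medium contained 2% galactose at pH 6.0; NS1-free yeast of the same strain were the positive control.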
RE007 growth inh – less growth of the S. pombe RE007 Vpr strain | S. pombe RE007 Vpr strain, BacTiter-Glo ATP luminescence, 24 h; control for the full effect not named in the record | Potency, µM (highest dose often 92.2 µM), without a hit: at the highest dose activity change, negative = less growth | hit rate 0.21% among 360,000 | AID 651644; active = well fitted falling curve with a large enough effect; inconclusive = small, poorly fitted or top-dose-only effect; inactive = no such curve, though single readings can be large or run the other way;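 further: on the % scale 0 is the no-effect control and ±100 the full control effect; nearly all actives have a fitted effect of over 50% in size; the assay follows cell death caused by Vpr and the record does not say whether a fall means rescue or toxicity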
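Fission yeast RE007 carrying one integrated HIV-1 vpr copy, seeded at OD 0.01 in PMG+AL medium with 23 nL pinned compound. Grown 24 h at 30 degrees; viability read by BacTiter-Glo luminescence after 5 min.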
Marburg entry inh – inhibitors of Marburg virus binding or cell entry | Potency, µM (doses to about 37.8 µM), inactives show at the highest dose activity change, negative = inhibition, hits mostly inhibitors | Marburg virus pseudotyped entry inhibition, cell reporter; control for the full effect not named in the record; about a third of the inactives were read at about 46 µM | hit rate 1.8% among 300,000; active = well fitted inhibition curve with a large enough effect; inconclusive = small, poorly fitted or top-dose-only effect, or effect the other way; inactive = flat fitted curve, though single readings scatter; tested in HEK293 cells; about a fifth of its hits are not listed in these tables; further: on the % scale 0 is the no-effect control and ±100 the full control effect; luciferase read-out
Cruzain inh noDet – cruzain (T. cruzi) inhibition without detergent; P25779; purified cruzain, Z-FR-AMC fluorescence, no detergent; Potency, µM, for inactives: max response, negative = inhibition, most hits filed as inhibitors; hit rate 2.3% among 200,000; AID 1476;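 further: plate controls were enzyme without inhibitor for no effect and buffer without enzyme for full effect; nearly all actives have a fitted effect of over 40% in size; top concentration of the series not given in the record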
Target sequence (P25779 123-467 limits assumed): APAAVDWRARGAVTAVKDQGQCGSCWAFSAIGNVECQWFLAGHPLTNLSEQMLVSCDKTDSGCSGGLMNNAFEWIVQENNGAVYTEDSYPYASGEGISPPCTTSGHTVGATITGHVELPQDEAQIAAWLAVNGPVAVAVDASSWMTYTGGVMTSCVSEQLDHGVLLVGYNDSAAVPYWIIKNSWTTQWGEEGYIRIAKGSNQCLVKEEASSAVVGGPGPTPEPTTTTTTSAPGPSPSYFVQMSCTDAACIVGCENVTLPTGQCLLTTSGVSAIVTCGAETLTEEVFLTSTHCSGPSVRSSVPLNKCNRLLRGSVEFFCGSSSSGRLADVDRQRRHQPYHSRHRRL
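Detergent-free condition (0.00005% Triton X-100) in acetate buffer pH 5.5 with DTT. 1.5 nM enzyme and compound were pre-mixed 15 min, then 2 uM Z-FR-AMC substrate added; reaction progress from fluorescence change between first and third reads (60 s).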
Cruzain inh Det – inhibitors of Trypanosoma cruzi cruzain with detergent; AID 1478; hit rate 0.43% among 200,000; Potency, µM, without a hit: max response, negative = inhibition, most hits filed as inhibitors; P25779; purified cruzain, Z-FR-AMC fluorescence, 0.01% Triton;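 further: plate controls were neutral wells for no effect and buffer without enzyme for full effect; nearly all actives have a fitted effect of over 40% in size; top concentration of the series not given in the record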
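Z-FR-AMC hydrolysis (2 uM substrate) by cruzain (1.5 nM) monitored kinetically at ex 360/em 450 nm after 15 min room-temperature compound exposure; 0.01% Triton X-100, pH 5.5, 5 mM DTT.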
SARS PLpro yeast – SARS-CoV PLP inhibition in yeast. hit rate 0.19% among 330,000. Potency, µM (top dose mostly 32.9 µM), for inactives: top-dose activity, positive = growth rescue. S. cerevisiae expressing SARS-CoV PLpro, growth rescue; control for the full effect not named in the record; active means well fitted rising curve with a large enough effect; inconclusive means small, poorly fitted or top-dose-only effect; inactive means no such curve, though single readings can be large or run the other way; further: 0% is about no effect; nearly all actives have a fitted effect of over 55% in size; growth read by luminescence after 48 h
2A StopGo – FMDV 2A StopGo reporter, luciferase signal; human cells with a luciferase reporter of 2A StopGo recoding; control for the full effect not named in the record; Potency, µM (top dose mostly 57.9 µM), for the others: at the highest dose signal change, negative = less light; hit rate 1.2% among 410,000; active = well fitted falling curve with a large enough effect; inconclusive = small, poorly fitted or top-dose-only effect; inactive = no such curve, though single readings can be large or run the other way; tested in HEK293T cells; further: on the % scale 0 is the no-effect control and ±100 the full control effect; nearly all actives have a fitted effect of over 45% in size; luciferase light after 4 h
Lassa entry inh – blocks Lassa virus binding to or entry into cells; Potency, µM (top dose mostly 37.9 µM), for the others: at the top dose activity change, negative = inhibition, usual class: inhibitors; hit rate 1.2% among 300,000; Lassa virus pseudotype entry inhibition, cell reporter; control for the full effect not named in the record; active means well fitted inhibition curve with a large enough effect; inconclusive means small, poorly fitted or top-dose-only effect, or effect the other way; inactive means flat fitted curve, though single readings scatter; tested in HEK293 cells; further: on the % scale 0 is the no-effect control and ±100 the full control effect; nearly all actives have a fitted effect of over 50% in size; luciferase read-out
Numbers without * were called inactive; u = inconclusive; x = no result given; & = joins results of further samples; [ ] = remark or other dose. Unless noted, the call rests on the fitted dose curve; in most records, active means well fitted curve in the direction sought with a large enough effect; inconclusive means small, poorly fitted or top-dose-only effect, or another doubt; inactive means no such curve, though single readings can be large; an effect the other way counts as inactive or inconclusive. Potency means the concentration at half of the fitted maximal effect.

Molecule,NS1 function inh,RE007 growth inh,Marburg entry inh,Cruzain inh noDet,Cruzain inh Det,SARS PLpro yeast,2A StopGo,Lassa entry inh
CCOc1ccc(-n2cccc2C=O)cc1,-22%,1%,21%,-5%,-1.8%,9%,26%,9%
CCC(C)N(C(=O)CSc1nncn1C)C1CCS(=O)(=O)C1 (configuration not stated),x,-10%,-6%[46.1 µM],x,x,-3%,22%,-3%[46.1 µM]
O=C(CSc1nnc(-c2ccc([N+](=O)[O-])cc2)o1)Nc1ccccc1,x,x,u,10%,0.1%,x,23%,u
COc1ccc(S(=O)(=O)N2CCC(C(=O)NCC3CCCO3)CC2)cc1C (configuration not stated),8%,15%,4%,0%,3.2%,9%,-11%,0%
CC(=O)c1cccc(NS(=O)(=O)c2ccc(-c3cc(C)no3)s2)c1,0%,5%,x,x,x,10%,0%,x
CCOC(=O)N1N=C(c2ccc(C)cc2)CC1(O)C(F)(F)F (configuration not stated),8%,9%,u,-8%,2.8%,3%,x,-24%
NC(=O)CN1CCN(c2cccc(Cl)c2)CC1,x,-8%,-2%[46.1 µM],x,x,1%,-12%,-2%
COc1ccc2ccccc2c1-c1sc(Nc2ccccc2)n[n+]1-c1ccc(F)cc1,19%,-8%,x,x,x,0%,u,x
Cc1ccc(-n2c(Cc3ccccc3)nnc2SCC(=O)NNC(=O)Cc2ccccc2)cc1,-1%,0%,1%,u,5.7%,1%,22%,u
COc1ccc(OC)c(-c2cc(C(=O)Nc3ccc(C)c(C)c3)no2)c1,x,x,-18%[46.1 µM],-8%,-9.4%,x,2%,29%[46.1 µM]
COC(=O)c1c(SC)nc2ccccc2c1OCc1cccc(C)c1,x,x,x,-21%,-3.2%,x,-21%,-9%[46.1 µM]
CC(C)Cc1csc(NC(=O)c2ccc(F)cc2)c1C(=O)O,-30%,15%,u,u,-13%,-60%,-8%,u
CC(=O)c1ccc(N2CCN(C(=O)c3ccc(S(=O)(=O)NCc4ccco4)cc3)CC2)cc1,x,-9%,-4%[46.1 µM],x,x,20%,-12%,-18%[46.1 µM]
COc1ccc(S(=O)(=O)N2CCOC2CNC(=O)C(=O)NCc2ccncc2)cc1C (configuration not stated),x,11%,-15%,x,x,x,-3%,4%
COC(=O)c1ccc(CN(c2ccccn2)S(=O)(=O)c2ccccc2)cc1,0%,-1%,-6%,2%,4.1%,5%,23%,0%
Cc1cccc(S(=O)(=O)c2c(N)n(/N=C/c3ccccc3)c3nc4ccccc4nc23)c1,5%,6%,u,4µM*,0.9%,13%,24%,-13%
CCN(CC)CC(C)CNC(=O)CN1C(=O)CSc2ccc(S(=O)(=O)N3CCOCC3)cc21 (configuration not stated),1%,0%,4%&4%,-7%&-6%,0.8%&-1.2%,8%,-9%&2%,15%[46.1 µM]
CCOc1ccc(NC(=O)Cc2ccc(S(=O)(=O)N3CCOCC3)s2)cc1OCC,0%,-5%,4%,x,x,-3%,-4%,8%
CCn1ncc(-c2csc(N)n2)c1C,x,-6%,23%[46.1 µM],x,x,0%,0%,-8%
CCC(C)NC(=O)CNC(=S)N(Cc1ccccc1F)C1CCCCC1 (configuration not stated),-1%,0%,u,x,x,-2%,25%,-8%
O=C(CF)NC(NC(=S)Nc1ccccc1O)C(Cl)(Cl)Cl (configuration not stated),-4%,-16%,x,x,x,1%,14%,x
Cc1ccc(NC(=O)CCNS(=O)(=O)c2ccc3c(c2)CCC(=O)N3)cc1,-3%,3%,x,x,x,-5%,-2%,x
CC(C)CN1C(=O)NC2(CCCc3ccccc32)C1=O (configuration not stated),-6%,12%,x,x,x,-1%,2%,x
CCOc1ccc(NC(=S)N2CCC(C(=O)c3ccc(F)cc3)CC2)cc1,x,u,-15%[46.1 µM],x,x,x,21%,u
CCN(CC)S(=O)(=O)c1cccc(C(=O)N/N=C/c2ccccn2)c1,x,-14%,0%[46.1 µM],x,x,-1%,38%[activator],6%
Cc1ccc(C(C)C)c(OCC(=O)Nc2ccc(N3CCOCC3)cc2N2CCOCC2)c1,x,-4%,u,x,x,-7%,0%,-16%
CCOc1cc2nc3c4ccccc4n(C)c3nc2cc1OCC,15%,13%,13%,u,-7.9%,13%,9%,-4%
COC(c1ccccc1)c1nnc(CCC(=O)N(C)CCCC2CCCC2)o1 (configuration not stated),-31%,-3%,-2%[46.1 µM],x,x,0%,12%,-26%[46.1 µM]
N=C(N)SCc1cn(-c2ccccc2)nc1-c1ccc(Br)cc1,6%,-26%,u,x,x,0%,20µM*,u
CCC(=O)Nc1cc(C)c(O)c(-c2nc3ncccc3o2)c1,x,x,x,13%,-0.6%,x,-8%,16%[46.1 µM]
CCN1C(=O)[C@H]2[C@@H](c3ccc(OC)cc3)N3C(=O)CN(Cc4ccccc4)C(=O)[C@@]3(C)[C@H]2C1=O,1%,11%,x,x,x,-6%,7%,x
Cc1cc(C(=O)N2CCCC(N3CCN(c4ccc(F)cc4)CC3)C2)no1 (configuration not stated),7%,-20%,-5%,x,x,0%,-22%,8%
CCN1CCN(CCNC(=O)c2cn(Cc3ccccc3F)nn2)CC1,1%,-25%,5%,-14%,-1.4%,-15%,-23%,4%
COc1ccc(OC)c(NC(=O)c2cc3cc4ccc(C)cc4nc3s2)c1,x,x,9%[46.1 µM],2%,0.1%,x,-7%,16%[46.1 µM]
CCNC(=S)Nc1ccc(Oc2ccccc2)cc1,x,29%,10%[46.1 µM],x,x,x,37%[activator],3%
COc1ccccc1N(C)S(=O)(=O)c1ccc(C)c(C(=O)N2CCCCCC2)c1,x,3%,-23%,x,x,-1%,4%,-3%
Cc1ccc2nc(-c3cccnc3)cc(C(=O)Nc3ccccc3[N+](=O)[O-])c2c1,11%,-4%,-15%,x,x,5%,-21%,-13%
CC(C)c1cnc2c(c1SCc1ccc([N+](=O)[O-])cc1)c(=O)n(C)c(=O)n2C,x,x,x,1%,0.7%,x,-26%,-5%[46.1 µM]
Nc1nnnn1/N=C/c1cc(Br)ccc1O,x,-4%,0%[46.1 µM],x,x,x,-8%,0%
CCCN1CCC(NC(=O)c2cccc(Oc3ccccc3)c2)CC1,11%,-5%,u,x,x,3%,-23%,u
O=C(COC(=O)CCN=C1NS(=O)(=O)c2ccccc21)NNC(=O)c1ccccc1,x,9%,12%,x,x,2%,12%,-8%
Cn1cc(S(=O)(=O)N2CCCC2)cc1C(=O)NCc1ccccc1Cl,0%,0%,x,x,x,-6%,0%,x
O=S(=O)(Nc1ccc(O)c(CN2CCCCC2)c1)c1ccccc1,-1%,-22%,u,-5%,0.7%,5%,0%,-2%
O=C(c1ccc2c(c1)N(Cc1ccccc1F)C(=O)c1ccccc1S2(=O)=O)N1CCOCC1,x,x,0%[46.1 µM],16%,1.5%,x,10%,13%[46.1 µM]
COc1ccc(-c2nn(-c3ccccc3C)cc2CNCc2cccnc2)cc1F,-1%,3%,1%[46.1 µM],x,x,-1%,17%,-3%
CCc1ccc(NC(=O)CSc2nc3n[nH]c(C)c3c(=N)n2-c2cccc(OC)c2)cc1,u,10%,u,13µM*,-12%,13%,-10%,u
O=C1C=CC(=O)N1c1ccc(N2CCCCC2)cc1,-70%,2.8µM*,4%,x,x,-5%,u,u
CCn1c(SCc2ccccc2)nnc1C1CCCCC1,-18%,-2%,u,-5%,5.8%,18%,-14%,-11%
Cc1cc2[nH]c(=O)c(=O)[nH]c2cc1S(=O)(=O)N(C)C1CCCCC1,6%,11%,x,x,x,4%,-22%,x
COc1ccccc1NC(=O)CSc1nnc(-c2ccco2)o1,-42%,25%,2%,-5%,1.9%,1%,9%,17%
O=C(Nc1ccccc1N1CCCCC1)c1cccc(Cl)c1,-5%,-18%,-6%[46.1 µM],x,x,-3%,u,-21%[46.1 µM]
COc1cccc(NS(=O)(=O)c2ccc3[nH]cc(C(=O)NC(C)c4ccccc4)c(=O)c3c2)c1 (configuration not stated),x,x,8%[46.1 µM],-9%,-8.7%,x,22%,2%[46.1 µM]
O=C1NCCN1C(=O)N(c1ccccc1)c1ccccc1,u,11%,-6%,6%,1.1%,-10%,-22%,11%[14.3 µM]
Cn1c(=O)c2cc(S(=O)(=O)NC(C(=O)Nc3cccc(F)c3)c3ccccc3)ccc2n(C)c1=O (configuration not stated),3%,6%,0%,4%,1.0%,7%,-7%,x
CCCOc1ccc(NC(=O)C2CC(=O)N(C(C)C)C2)cc1 (configuration not stated),-6%,-17%,-4%,3%,-1.0%,1%,26%,-13%
COc1cccc(-c2cccc(NC(=O)C3CCN(Cc4nccs4)CC3)c2)c1,2%,-10%,5%,x,x,u,-19%,-10%
CCOc1ccc(N(CC(=O)NCc2ccccc2)S(C)(=O)=O)cc1,2%,15%,26%,0%,0.2%,0%,36%[activator],-4%
O=C(CSc1nnc(-c2cccnc2)o1)Nc1ccccc1F,x,-11%,u,x,x,1%,31%[activator],u
O=C(COC(=O)C1CCN(S(=O)(=O)c2ccc3c(c2)OCCO3)CC1)Nc1ccc(C(F)(F)F)cc1,-1%,11%,-2%,6%,-7.2%,3%,-8%,-9%
O=C(CN1CCN(c2ccc([N+](=O)[O-])cc2)CC1)Nc1nccs1,u,4%,u,-13%,-2.7%,5%,u,2%

Remaining list, next part
Molecule,NS1 function inh,RE007 growth inh,Marburg entry inh,Cruzain inh noDet,Cruzain inh Det,SARS PLpro yeast,2A StopGo,Lassa entry inh
COc1ccc(NC(=S)N/N=C/c2ccc(F)c(F)c2)cc1,-44%,-14%,x,x,x,-1%,11%,x
CC(NC(=O)c1ccc(CS(C)(=O)=O)cc1)C1CC2CCC1C2 (configuration not stated),-4%,-17%,-1%[46.1 µM],x,x,-3%,-12%,x
CN(C)CC1CCCCC1OC(=O)/C=C/c1ccccc1 (configuration not stated),-53%,-9%,-38%,x,x,-1%,-7%,-2%
COc1ccccc1NC(=O)COc1ccc(/C=N/n2cnnc2)cc1OC,10%,-3%,11%,-3%,-1.4%,2%,x,3%

An unsorted share of the library (roughly 4.7% active in at least one column).
